Screening results (PubChem BioAssay)
Mtb bLac sens = beta-lactam sensitization of Mtb H37Rv; M. tuberculosis H37Rv growth with meropenem, percent inhibition; hits of this screen are not shown here; inhibition, % at 25 µM; hit rate 0.27% among 330,000; AID 434955;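 active = about 74% or more and at least 40 points above the plate without the antibiotic, then above 30% in a dose series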;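 note: growth measured after seven days incubation then overnight dye step; 0% = bacteria only wells and 100% = bacteria with antibiotic; twin plates without the antibiotic show which effects depend on it; some results filed as inactive read as strong as hits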
* marks the source's active call; other numbers are inactive results.

SMILES	Mtb bLac sens
Cc1ccc(NC(=O)CSc2nnc(Cc3csc(C)n3)o2)cc1	7
Nc1c(C(=O)N2CCCCC2)sc2nc3c(cc12)CCCC3	-3
CN1CCN(C(=O)c2cccc(S(=O)(=O)N3CCCC3)c2)CC1	3
CC(C)CN(C(=O)CSc1nnc(C2CC2)n1-c1ccccc1)C1CCS(=O)(=O)C1 (stereo not drawn)	6
CC(=O)Nc1ccc(S(=O)(=O)NC(C)c2ccncc2)cc1 (stereo not drawn)	0
COc1ccc([C@H]2CC(=O)C=C(c3ccc(OC)c(OC)c3)C2)cc1	36
COc1cc(CC(=O)OCC(=O)c2c[nH]c3ccccc23)cc(OC)c1OC	-5
CCc1sc(C(=O)Nc2ccc3c(c2)OCO3)cc1C	-5
Cc1cccc(C(=O)Nc2ccc(NC(=O)c3ccccc3)cc2)c1	2
N#Cc1ccc(OCC(=O)N2CCN(c3ccc(C(F)(F)F)cn3)CC2)cc1	6
O=C(NNC(=O)c1ccc(-c2ccc([N+](=O)[O-])cc2)o1)c1ccncc1	97
CCOC(=O)[C@H]1[C@H]2COc3ccc(Cl)cc3[C@H]2N2C(=O)CNC(=O)[C@@]12C	-5
CCN(CC)c1ccc(C=Nc2ccc(OC)c(S(=O)(=O)N3CCOCC3)c2)c(O)c1	1
O=C(CN1C(=O)NC2(CCCCCC2)C1=O)NCc1ccc(Cl)cc1	-1
CCN(CC)S(=O)(=O)c1cc(NC(=O)CSc2n[nH]c(N)n2)ccc1C	-7
Cc1ccc(C(=O)N2CCCCC2)cc1NC1=C(Cl)C(=O)N(Cc2ccccc2)C1=O	-1
c1cc(SC2CCCCC2)cc(-c2nc3cnccn3c2NC2CCCCC2)c1	98
CCOC(=O)[C@@H]1[C@H]2COc3cc(OC)ccc3[C@H]2N2C(=O)N(c3ccc(Cl)cc3)C(=O)[C@]12C	-6
Nn1c(SCC(=O)NCC2CCCO2)nnc1-c1ccco1 (stereo not drawn)	-4
CC(C)c1nnc(NC(=O)C2CCCN2C(=O)Nc2ccccc2)s1 (stereo not drawn)	1
C[N+]1(C)C2CC[C@H]1CC(OC(=O)C(CO)c1ccccc1)C2 (stereo partly drawn)	4
C#CCOCCOCCOCCNc1nc(N2CCN(C(=O)[C@H](CCC(=O)O)n3cc([C@@H](N)CCCCN)nn3)CC2)nc(N2CCN(C(=O)[C@H](CCC(=O)O)n3cc([C@@H](N)CCCCN)nn3)CC2)n1	-4
NN=C(N)N	0
COc1ccc(CNC(=O)CC2C[C@H](C(=O)N(C(C)C)C(C)C)[C@@]3(C)c4[nH]c5ccccc5c4CCN3C2=O)cc1OC (stereo partly drawn)	-11

Ordered by molecular weight (largest number first): 5 of the compounds above.
SMILES	Mtb bLac sens
CC(C)CN(C(=O)CSc1nnc(C2CC2)n1-c1ccccc1)C1CCS(=O)(=O)C1 (stereo not drawn)	6
CC(C)c1nnc(NC(=O)C2CCCN2C(=O)Nc2ccccc2)s1 (stereo not drawn)	1
COc1ccc([C@H]2CC(=O)C=C(c3ccc(OC)c(OC)c3)C2)cc1	36
Nc1c(C(=O)N2CCCCC2)sc2nc3c(cc12)CCCC3	-3
C[N+]1(C)C2CC[C@H]1CC(OC(=O)C(CO)c1ccccc1)C2 (stereo partly drawn)	4

The list continues.
SMILES	Mtb bLac sens
Cc1cc(C(=O)COC(=O)C23CC4CC(CC(O)(C4)C2)C3)c(C)n1C	-1
COc1ccc(CC(=O)N(C)CC(=O)Nc2c(C)cccc2C)cc1S(=O)(=O)N1CCOCC1	0
COC(=O)c1c(C)[nH]c(C(=O)CN(C)CC(=O)Nc2cccc(F)c2)c1C	1
CC(Sc1nnc(Cc2ccccc2)o1)C(=O)Nc1ccccc1[N+](=O)[O-] (stereo not drawn)	2
COCc1ccc(C(=O)Nc2ccccc2C(=O)NCc2cccnc2)cc1	-8
Cc1cccc(NC(=O)CN2CCN(C(=O)CNC(=O)Cc3cccc4ccccc34)CC2)c1C	-3
ClCc1c2ccccc2cc2ccccc12	6
Cc1ccc(C(=O)OCC(=O)NC(C)c2ccccc2)s1 (stereo not drawn)	3
CCC(C(=O)NC1CCCCCC1)c1ccccc1 (stereo not drawn)	1
CC(C(=O)NC1(C#N)CCCCC1)N(C)CC(=O)Nc1ccc(Cl)c(Cl)c1 (stereo not drawn)	8
CCCn1c(SC(C)C(=O)NC2CC2)nnc1-c1ccncc1 (stereo not drawn)	-7
Cn1cccc1C(=O)OCC(=O)Nc1sccc1C#N	4
CC1CCCC(NC(=O)NC(=O)COC(=O)c2ccc(O)cc2O)C1C (stereo not drawn)	-5
CCOC(=O)[C@H]1[C@H]2COc3ccc(Cl)cc3[C@@H]2N2C(=O)c3ccc(F)cc3NC(=O)[C@@]12C	44
COc1cc(-c2noc(C)c2C(=O)NCCCN2CCCC2=O)cc(OC)c1OC	1
COc1ccc(N(C)C(=O)C2CCN(S(=O)(=O)c3cccc4nonc34)CC2)c(OC)c1	-2

4 of these compounds, set out differently.
> CC(C(=O)NC1(C#N)CCCCC1)N(C)CC(=O)Nc1ccc(Cl)c(Cl)c1 (stereo not drawn)
  Mtb bLac sens: 8

> CCCn1c(SC(C)C(=O)NC2CC2)nnc1-c1ccncc1 (stereo not drawn)
  Mtb bLac sens: -7

> Cn1cccc1C(=O)OCC(=O)Nc1sccc1C#N
  Mtb bLac sens: 4

> CC1CCCC(NC(=O)NC(=O)COC(=O)c2ccc(O)cc2O)C1C (stereo not drawn)
  Mtb bLac sens: -5

(further entries)
SMILES	Mtb bLac sens
O=C(COC(=O)c1ccc([N+](=O)[O-])s1)Nc1ccc(F)cc1	68
COc1ccc(NC(=O)CSc2nnc(C)s2)cc1S(=O)(=O)N1CCOCC1	4
O=C(COc1ccc(S(=O)(=O)N2CCOCC2)cc1Cl)NC1CC1	-26
O=C(NN1C(=O)NC2(CCCCC2)C1=O)c1cc(F)cc(F)c1	-5
N#Cc1ccc(C(=O)NC(=S)N2CCN(C=O)CC2)cc1	-2
N#Cc1ccc(C(=O)N2CCN(S(=O)(=O)c3ccc(Cl)s3)CC2)cc1	-14
O=C(Cn1cc(Br)ccc1=O)Nc1ccc2c(c1)OCO2	-10
O=C(Cn1cnc2ccccc2c1=O)NNC(=O)c1cccc([N+](=O)[O-])c1	-4
COc1ccc(NC(=O)c2ccccc2NC(=O)CN2CCCCCC2)cc1	-3
Cc1ccc(CNC(=O)[C@H](Cc2ccccc2)NC(=O)c2ccco2)cc1	-6
Cc1ccc(C(=O)N2CCN(c3ccc(C(F)(F)F)cn3)CC2)o1	0
COc1cc(NC(=O)c2ccccc2)c(OC)cc1NC(=O)CN1C(=O)NC2(CCCCC2C)C1=O (stereo not drawn)	-9
CCCCn1c(SCC(=O)Nc2cc(C)on2)nc2cc(S(N)(=O)=O)ccc21	-2
O=C(N[C@@H]1CCC(=O)N(CC[C@H](Sc2ccc(Br)cc2)c2ccccc2)CC1)OCc1ccccc1	-3
C#CCOCCOCCOCCNc1nc(N2CCN(C(=O)CCCCCCCCCCNC(=O)Cn3cc(CCCCCN)nn3)CC2)nc(N2CCN(C(=O)CCCCCCCCCCNC(=O)[C@H](CO)n3cc(CCCCCN)nn3)CC2)n1	1
Cc1ccc(S(=O)(=O)N2CCCCC2)cc1C(=O)NCc1ccc(S(N)(=O)=O)cc1	3
C[C@H](CO)N1C[C@H](C)[C@@H](CN(C)Cc2ccncc2)Oc2c(NC(=O)c3ccncc3)cccc2C1=O	-4
Nn1c(SCC(=O)NCCc2ccc(F)cc2)nnc1C1CCCCC1	-11
COc1ccc(NC(=O)CCN2C(=O)c3cccc([N+](=O)[O-])c3C2=O)cc1	-7
CC(C)NC(=O)Nc1cccc2c1O[C@H](CN(C)C(=O)NC1CCCCC1)[C@H](C)CN([C@H](C)CO)C2=O	0
COc1cccc(NC(=O)CN(C)C(=O)c2ccc(COc3ccccc3)o2)c1	5
Cc1ccc(S(=O)(=O)N(C)C[C@H]2Oc3ccc(NC(=O)Nc4c(C)noc4C)cc3CC(=O)N([C@@H](C)CO)C[C@@H]2C)cc1	-2
CC(C)(C)OC(=O)N[C@H](C(=O)OC(C)(C)C)c1ccc2c(c1)OCO2	3
CCN(CC(=O)Nc1ccc(OC)cc1)C(=O)c1ccc2c(=O)n3c(nc2c1)CCC3	2
COc1ccc(OCCN2CCN(S(=O)(=O)c3ccccc3C(F)(F)F)CC2)cc1	0
COc1cc(O)c2c(=O)c3c(O[C@H]4O[C@@H](CO)[C@H](O)[C@@H](O)[C@@H]4O)ccc(O)c3oc2c1	5
C=CCC[C@H](Cc1ccc(F)cc1)C(=O)OC[C@@H](NC(=O)[C@@H](CC=C)CC(=O)N[C@H](CO)Cc1ccccc1)C(C)(C)C	12
CC(C)[C@H](NC(=O)OCc1ccccc1)C(=O)NC(C=O)Cc1ccccc1 (stereo partly drawn)	5
CC(=O)Nc1nc2cc([N+](=O)[O-])ccc2s1	-2
Cc1cc(C)cc(OCC(=O)OCC(=O)NC2CCCCCC2)c1	-1
O=C(CN1C(=O)C2CCCCC2C1=O)Nc1cccc(C(F)(F)F)c1 (stereo not drawn)	-8
CCn1c(Cc2ccc(OC)cc2)nc2ccccc21	-4
O=C(COC(=O)c1ccc(Cl)c(S(=O)(=O)N2CCCC2)c1)NCc1ccccc1	5
Cc1cccc([N+](=O)[O-])c1NC(=O)CSc1nnc2ccccn12	-5
CCNS(=O)(=O)c1ccc(CCC(=O)N2CCN(c3ccccc3F)CC2)cc1	-2
C[C@@H]1CN(S(=O)(=O)c2ccc3c(c2)OCCO3)CCN1S(=O)(=O)c1c(F)cccc1F	3
COC(=O)[C@@]12CCCCN1[C@H](c1ccc(-c3ccc(Cl)c(Cl)c3)c(OC)c1)[C@H]1C(=O)N(C)C(=O)[C@H]12	11
O=C(Nc1ccc(F)cc1)C1CCN(S(=O)(=O)c2cccc3nonc23)CC1	0
COc1ccc(S(=O)(=O)N2CCOCC2)cc1NC(=O)CNC(=O)c1cccs1	-2
CCC(C)NC(=O)CSc1ccc(S(=O)(=O)N(C)C2CCCCC2)cn1 (stereo not drawn)	3
Cc1ccc(S(=O)(=O)N2CCN(C(=O)COC(=O)CNC(=O)c3ccc(C(C)(C)C)cc3)CC2)c(C)c1	-6
CCn1c(=O)n(CC)c2cc(NC(=O)C(C)c3ccccc3)c(Br)cc21 (stereo not drawn)	-10
CCc1ccc(/C(C)=N/NC(=O)c2ccc(-n3cnnn3)cc2)cc1	-13
Cc1ccc(S(=O)(=O)N2CCC(C(=O)OC(C)C(=O)N(C)c3ccccc3)CC2)cc1C (stereo not drawn)	1
NC(=O)CC[C@H](NC(=O)c1ccc(F)cc1)C(=O)OCC(=O)NCc1ccc2c(c1)OCO2	0
CC(C)NC(=O)N(C)C[C@H]1Oc2ccc(NC(=O)C3CCCCC3)cc2C(=O)N([C@H](C)CO)C[C@@H]1C	-6
CN(CC(=O)Nc1ccc(F)cc1)C(=O)COC(=O)c1cc(S(=O)(=O)N(C)C)ccc1N1CCCC1	-4
CC(C)(C)OC(=O)NCc1ccc(CNC(=O)c2nc[nH]c2C(=O)N2CCc3ccccc3C2)cc1	3
CC(=O)c1c(C)[nH]c(C(=O)OCC(=O)c2ccc(C)s2)c1C	4
COc1cc(OC)cc(C(=O)NC(C(=O)Nc2ccc3nc(C)sc3c2)C(C)C)c1 (stereo not drawn)	-1
O=C(COC(=O)/C=C/c1ccccc1[N+](=O)[O-])NCc1ccco1	-8
COc1ccc(NC(=O)CN(C)CC(=O)c2[nH]c(C)c(C(C)=O)c2C)cc1	-3
COc1cc(C(C)=O)ccc1OCC(=O)Nc1ccc(C)c(S(=O)(=O)N2CCCCCC2)c1	-5
CCOC(=O)C1(c2ccccc2)CCN(CCC(=O)Nc2ccc(C(=O)OC)cc2)CC1	4
O=C(Cc1cccc(NC(=O)C2CCN(C(=O)C3CCCCC3)CC2)c1)Nc1cccc(C(=O)N2CCCC2)c1	11
CCN(c1ccccc1)S(=O)(=O)c1ccc(OC)c(NC(=O)C2CCC2)c1	0

The results go on:
SMILES	Mtb bLac sens
COc1ccccc1N(C)S(=O)(=O)c1ccc(C(=O)Nc2ccncc2)cc1	3
CSCCC(NS(=O)(=O)c1ccccc1F)C(=O)NCC(C)(C)N1CCOCC1 (stereo not drawn)	-1
O=C(COC(=O)c1ccc2ncsc2c1)Nc1cccc(Cl)c1	67
Cc1cc(C(=O)CN2C(=O)NC(C)(c3cc(F)ccc3F)C2=O)c(C)n1C1CC1 (stereo not drawn)	-6
O=C(OCCc1cc2ccccc2c(=O)o1)c1ccc2c(c1)OCO2	3
Cc1ccc([N+](=O)[O-])cc1S(=O)(=O)Nc1cccc(S(=O)(=O)NC2=NCCC2)c1	2
N#CCCN(C(=O)COC(=O)CCc1nc2ccccc2c(=O)[nH]1)c1ccc(F)cc1	-2
O=C(COC(=O)c1cc(=O)[nH]c(=O)[nH]1)Nc1cccc(Cl)c1	-6
CCCC[C@@H]1C=C(C(=O)O)[C@H](c2ccc(C#N)cc2)N1S(=O)(=O)c1ccc(C)cc1	8
COc1ccc(S(N)(=O)=O)cc1C(=O)OCC(=O)Nc1ncc(Cl)c(C)c1Cl	-4
CCCCN(C(=O)COC(=O)c1ccc(C)s1)c1c(N)n(CCC)c(=O)[nH]c1=O	1
O=C(COC(=O)Cc1ccsc1)Nc1ccc(Br)cc1F	14

A portion of the library (hit frequency here may not be typical).
